HIV Env fusion: HIV envelope-mediated fusion inhibition; HeLa-JRFL Env/CEM21 cell fusion, luciferase; inhibition, % at 12.3 µM; 1.1% of 360,000 active; AID 651610;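 active means mean replicate inhibition score of at least 50 and every replicate individually at or above 50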;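 further: 0% = plate neutral controls and 100% = maraviroc near 300 nM; one replicate is shown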
Yeast UUG start: alters start codon recognition fidelity in yeast; S. cerevisiae UUG-firefly luciferase reporter, luminescence/redox ratio; AID 602363; 0.13% of 350,000 active; activity score, % at 18.7 µM;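 active means replicate mean at a twofold rise or more, about +100% in these data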;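 further: firefly luciferase made from a UUG start codon reports start codon fidelity; reporter light over untreated wells divided by growth signal over untreated wells; some hits fall short of that in this replicate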
* = called active by the depositor; [ ] = remark or other dose.

The line under a structure holds: Yeast UUG start	HIV Env fusion
- CC(=O)n1cc([C@H]2C=C(C(=O)N3CCCCCCC3)O[C@@H](OCCCCO)C2)c2ccccc21
    -16	7[16.7 µM]
- Cc1ccc(-c2cnc3c(c2)C(=O)N([C@H](C)CO)C[C@H](C)[C@H](CN(C)C(=O)c2cccc(F)c2)O3)cc1
    10	13[16.7 µM]
- CCC(=O)N(C)C[C@@H]1Oc2ncc(C#CC3(O)CCCC3)cc2C(=O)N([C@H](C)CO)C[C@@H]1C
    -3	15[16.7 µM]
- C[C@@H]1CN([C@@H](C)CO)C(=O)c2cc(C3=CCCCC3)cnc2O[C@@H]1CN(C)Cc1ccncc1
    3	-6[16.7 µM]
- C[C@@H]1CN([C@@H](C)CO)C(=O)c2cc(C#CC3(O)CCCC3)cnc2O[C@@H]1CN(C)C(=O)Cc1ccncc1
    0	13[16.7 µM]
- CC(=O)N(C)C[C@@H]1Oc2ncc(-c3ccc(C(=O)N(C)C)cc3)cc2C(=O)N([C@H](C)CO)C[C@H]1C
    17	6[16.7 µM]
- CCNC(=O)Nc1ccc2c(c1)C(=O)N(C)[C@H]1CC[C@@H](CC(=O)NCCOC)O[C@@H]1CO2
    -12	-23[16.7 µM]
- CC(C)NC(=O)N(C)C[C@@H]1OCCCC[C@H](C)Oc2ccc(NS(=O)(=O)c3cccs3)cc2C(=O)N([C@@H](C)CO)C[C@@H]1C
    -18	-5[16.7 µM]
- CCCC#Cc1ccc2c(c1)O[C@@H](CN(C)S(C)(=O)=O)[C@H](C)CN([C@@H](C)CO)S2(=O)=O
    5	20[16.7 µM]
- COc1ccc(NC(=O)Nc2ccc3c(c2)C(=O)N([C@@H](C)CO)C[C@@H](C)[C@H](CN(C)C(=O)Nc2cccc4ccccc24)O3)cc1
    -5	0[16.7 µM]
- C[C@H]1CCCCO[C@@H](CN(C)C(=O)Nc2ccc(C(F)(F)F)cc2)[C@@H](C)CN([C@@H](C)CO)C(=O)c2cc(NC(=O)NC3CCCCC3)ccc2O1
    -6	19[16.7 µM]
- C[C@H](CO)N1C[C@H](C)[C@@H](CN(C)CC2CC2)Oc2ccc(NC(=O)Nc3ccc(C(F)(F)F)cc3)cc2CC1=O
    2	0[16.7 µM]
- COC(=O)C[C@H]1C[C@H]2c3cc(NC(=O)NC4CCCCC4)ccc3O[C@H]2[C@H](CO)O1
    -11	10[16.7 µM]
- O=C(C[C@H]1C=C[C@@H](NC(=O)c2cccc(F)c2)[C@@H](CO)O1)NCCN1CCCC1
    12	1[16.7 µM]
- COc1cc2c(cc1OC)CN(C(=O)[C@H]1[C@@H]3C(=O)O[C@@H](c4ccccc4)[C@@H](c4ccccc4)N3[C@@H](c3ccc(O)cc3)[C@]13C(=O)Nc1ccccc13)CC2
    -5	-10[16.7 µM]

(cont.)
The line under a structure holds: Yeast UUG start	HIV Env fusion
- C[C@@H]1CN([C@@H](C)CO)C(=O)c2cccc(N(C)C)c2O[C@@H]1CN(C)Cc1ccc(C(=O)Nc2ccccc2N)cc1
    5	5[16.7 µM]
- C[C@@H]1CN([C@H](C)CO)C(=O)c2cc(C3=CCCC3)cnc2O[C@H]1CN(C)C(=O)C1CCOCC1
    8	-14[16.7 µM]
- CS(=O)(=O)N1[C@H](C#N)[C@@H](c2ccc(C#CC3CCCCC3)cc2)[C@H]1CO
    -11	-8[16.7 µM]
- COc1ccc(NC(=O)N(C)C[C@H]2OCCCC[C@H](C)Oc3ccc(NC(=O)NC(C)C)cc3C(=O)N([C@@H](C)CO)C[C@H]2C)cc1
    7	20[16.7 µM]
- CO[C@H]1CN(C)C(=O)c2ccc(NC(=O)NC(C)C)cc2OC[C@@H](C)NC[C@H]1C
    -2	-1[16.7 µM]
- C[C@@H]1CN([C@@H](C)CO)C(=O)Cc2cc(NC(=O)Nc3ccc4c(c3)OCO4)ccc2O[C@H]1CN(C)Cc1ccc2c(c1)OCO2
    1	8[16.7 µM]
- O=C(C[C@@H]1CC[C@H](NC(=O)c2cccnc2)[C@@H](CO)O1)NCc1ccc(Cl)c(Cl)c1
    16	-1[16.7 µM]
- C[C@@H]1CN([C@@H](C)CO)C(=O)c2cccc(NC(=O)c3cnccn3)c2O[C@@H]1CN(C)S(=O)(=O)c1cn(C)cn1
    -19	-2[16.7 µM]
- CC(=O)N(C)C[C@H]1Oc2cc(-c3ccc(C)cc3)ccc2S(=O)(=O)N([C@@H](C)CO)C[C@H]1C
    2	8[16.7 µM]
- C[C@@H]1CN([C@@H](C)CO)C(=O)c2cc(-c3ccncc3)cnc2O[C@H]1CN(C)C(=O)C1CCCCC1
    -4	0[16.7 µM]
- O=C(Nc1cccc(Cl)c1)N[C@H]1CC[C@@H](CCNC(=O)C2CCCCC2)O[C@H]1CO
    15	8[16.7 µM]
- COc1ccc(CN(C)C[C@@H]2Oc3c(NC(=O)Nc4ccc(OC)cc4)cccc3C(=O)N([C@@H](C)CO)C[C@@H]2C)cc1
    14	-34[16.7 µM]
- Cc1noc(C)c1NC(=O)N(C)C[C@@H]1Oc2c(NS(=O)(=O)c3ccccc3)cccc2C(=O)N([C@@H](C)CO)C[C@@H]1C
    2	31[16.7 µM]
- C[C@@H]1CCCCO[C@H](CN(C)C(=O)c2ccncc2)[C@@H](C)CN([C@@H](C)CO)C(=O)c2cc(NC(=O)Cc3ccccc3)ccc2O1
    21	-7[16.7 µM]
- Cc1ccc(S(=O)(=O)N(C)C[C@H]2Oc3ncc(-c4ccccc4)cc3C(=O)N([C@@H](C)CO)C[C@H]2C)cc1
    3	-1[16.7 µM]

3 entries from above, reformatted:
compound: Cc1noc(C)c1NC(=O)N(C)C[C@@H]1Oc2c(NS(=O)(=O)c3ccccc3)cccc2C(=O)N([C@@H](C)CO)C[C@@H]1C
  Yeast UUG start: 2	HIV Env fusion: 31[16.7 µM]
compound: C[C@@H]1CCCCO[C@H](CN(C)C(=O)c2ccncc2)[C@@H](C)CN([C@@H](C)CO)C(=O)c2cc(NC(=O)Cc3ccccc3)ccc2O1
  Yeast UUG start: 21	HIV Env fusion: -7[16.7 µM]
compound: Cc1ccc(S(=O)(=O)N(C)C[C@H]2Oc3ncc(-c4ccccc4)cc3C(=O)N([C@@H](C)CO)C[C@H]2C)cc1
  Yeast UUG start: 3	HIV Env fusion: -1[16.7 µM]

(listing goes on)
The line under a structure holds: Yeast UUG start	HIV Env fusion
- COc1ccc(-c2cn(CC[C@@H]3CC[C@H](NC(=O)NC(C)C)[C@H](CO)O3)nn2)cc1
    -8	-4[16.7 µM]
- C[C@@H]1CN([C@@H](C)CO)C(=O)c2cc(C3=CCCC3)cnc2O[C@@H]1CN(C)C(=O)NC1CCCC1
    5	15[16.7 µM]
- Cc1ccc(S(=O)(=O)N[C@@H]2CC[C@H](CCn3cc(C(C)C)nn3)O[C@@H]2CO)cc1
    -6	2[16.7 µM]
- C[C@H]1CN([C@@H](C)CO)C(=O)Cc2cc(NC(=O)C3CC3)ccc2O[C@@H]1CN(C)Cc1ccncc1
    -19	1[16.7 µM]
- C[C@@H]1CN([C@H](C)CO)C(=O)Cc2cc(NC(=O)Nc3cccc4ccccc34)ccc2O[C@@H]1CN(C)CC1CC1
    -2	-26[16.7 µM]
- C[C@@H]1CN([C@@H](C)CO)C(=O)c2cc(C3=CCCCC3)cnc2O[C@H]1CN(C)CC1CCOCC1
    -5	17[16.7 µM]
- COc1ccc(CN(C)C[C@@H]2OCCCC[C@H](C)Oc3ccc(NS(=O)(=O)c4ccc(C)cc4)cc3C(=O)N([C@H](C)CO)C[C@H]2C)cc1
    19	-11[16.7 µM]
- C[C@@H]1CN([C@H](C)CO)S(=O)(=O)c2ccc(-c3ccccc3F)cc2O[C@@H]1CN(C)S(C)(=O)=O
    6	-13[16.7 µM]
- C[C@H]1CN([C@@H](C)CO)C(=O)c2cc(C#CCN(C)C)cnc2O[C@@H]1CN(C)Cc1ccc(C(=O)O)cc1
    7	-22[16.7 µM]
- C[C@H](O)C#Cc1cnc2c(c1)C(=O)N([C@H](C)CO)C[C@H](C)[C@@H](CN(C)C(=O)c1ccc(F)cc1)O2
    19	-22[16.7 µM]
- Cc1ccc(S(=O)(=O)N(C)C[C@@H]2OCCCC[C@@H](C)Oc3ccc(NC(=O)Nc4ccc(F)cc4)cc3C(=O)N([C@H](C)CO)C[C@H]2C)cc1
    -2	8[16.7 µM]
- COc1ccc(S(=O)(=O)N(C)C[C@H]2OCCCC[C@H](C)Oc3ccc(NC(=O)CCC(F)(F)F)cc3C(=O)N([C@@H](C)CO)C[C@@H]2C)cc1
    21	-60[16.7 µM]
- Cc1ccc(S(=O)(=O)N(C)C[C@H]2OCCCC[C@H](C)Oc3ccc(NS(C)(=O)=O)cc3C(=O)N([C@H](C)CO)C[C@@H]2C)cc1
    20	-15[16.7 µM]
- Cc1ccc(S(=O)(=O)N(C)C[C@@H]2Oc3ccc(NS(=O)(=O)c4ccc(Cl)cc4)cc3CC(=O)N([C@@H](C)CO)C[C@H]2C)cc1
    2	-15[16.7 µM]
- CCCNC(=O)C[C@@H]1CC[C@@H]2[C@@H](COc3ccc(NC(=O)c4cccc(OC)c4)cc3C(=O)N2C)O1
    10	6[16.7 µM]

Following part:
The line under a structure holds: Yeast UUG start	HIV Env fusion
- Cc1ccc(S(=O)(=O)Nc2ccc3c(c2)C(=O)N([C@@H](C)CO)C[C@@H](C)[C@@H](CN(C)S(=O)(=O)c2ccc(F)cc2)OCCCC[C@H](C)O3)cc1
    -2	-59[16.7 µM]
- Cc1ccc(S(=O)(=O)N(C)C[C@H]2OCCCC[C@@H](C)Oc3ccc(NC(=O)NC4CCCCC4)cc3C(=O)N([C@@H](C)CO)C[C@H]2C)cc1
    -4	2[16.7 µM]
- C[C@@H]1CN([C@H](C)CO)C(=O)c2cc(NS(=O)(=O)c3ccccc3)ccc2O[C@@H](C)CCCCO[C@H]1CN(C)Cc1ccccc1
    7	-34[16.7 µM]
- COc1ccc(NC(=O)N(C)C[C@H]2Oc3c(NS(=O)(=O)c4ccc(Cl)cc4)cccc3C(=O)N([C@@H](C)CO)C[C@@H]2C)cc1
    0	0[16.7 µM]
- C[C@@H]1CN([C@H](C)CO)C(=O)Cc2cc(NC(=O)CCC(F)(F)F)ccc2O[C@H]1CN(C)C(=O)Nc1ccccc1
    -3	15[16.7 µM]
- COCC(=O)Nc1ccc2c(c1)C(=O)N(C)C[C@@H](OC)[C@H](C)CN(C(=O)CC1CC1)[C@@H](C)CO2
    19	11[16.7 µM]
- COCC(=O)Nc1ccc2c(c1)[C@@H]1C[C@@H](CC(=O)NCc3ccc(OC)cc3)O[C@@H](CO)[C@@H]1O2
    -2	-13[16.7 µM]
- C[C@@H]1CCCCO[C@@H](CN(C)Cc2ccc(C(=O)O)cc2)[C@@H](C)CN([C@H](C)CO)C(=O)c2cc(NC(=O)CCCN(C)C)ccc2O1
    -6	-29[16.7 µM]
- C[C@@H]1CCCCO[C@@H](CN(C)CC2CCCCC2)[C@@H](C)CN([C@@H](C)CO)C(=O)c2cc(NS(C)(=O)=O)ccc2O1
    7	3[16.7 µM]
- CNC[C@@H]1Oc2c(NS(=O)(=O)c3cn(C)cn3)cccc2C(=O)N([C@H](C)CO)C[C@@H]1C
    0	-10[16.7 µM]
- CC(=O)N1C[C@H]2CON(C)[C@H]2C[C@H]1c1cccc(-c2ccc(C#N)cc2)c1
    -1	9
- CCC(=O)N1C[C@H](O)COC[C@H]2O[C@@H](CC(=O)N3CCCCC3)CC[C@@H]21
    -5	25[16.7 µM]
- CC(C)NC(=O)Nc1ccc2c(c1)C(=O)N([C@H](C)CO)C[C@@H](C)[C@H](CN(C)Cc1ccc3c(c1)OCO3)OCCCC[C@@H](C)O2
    -7	-22[16.7 µM]
- O=C(C[C@H]1C=C[C@H](NC(=O)c2ccncc2)[C@@H](CO)O1)Nc1ccc(-c2ccccc2)cc1
    -15	-4[16.7 µM]
- C[C@@H]1CN([C@@H](C)CO)C(=O)Cc2cc(NC(=O)C3CCCCC3)ccc2O[C@H]1CN(C)C(=O)Nc1ccc(C(F)(F)F)cc1
    3	16[16.7 µM]

Fetched by compound from the list above, 3 records:
The line under a structure holds: Yeast UUG start	HIV Env fusion
- COCC(=O)Nc1ccc2c(c1)[C@@H]1C[C@@H](CC(=O)NCc3ccc(OC)cc3)O[C@@H](CO)[C@@H]1O2
    -2	-13[16.7 µM]
- C[C@@H]1CN([C@H](C)CO)C(=O)c2cc(NS(=O)(=O)c3ccccc3)ccc2O[C@@H](C)CCCCO[C@H]1CN(C)Cc1ccccc1
    7	-34[16.7 µM]
- Cc1ccc(S(=O)(=O)N(C)C[C@H]2OCCCC[C@@H](C)Oc3ccc(NC(=O)NC4CCCCC4)cc3C(=O)N([C@@H](C)CO)C[C@H]2C)cc1
    -4	2[16.7 µM]

Next compounds:
The line under a structure holds: Yeast UUG start	HIV Env fusion
- O=C(C[C@@H]1C=C[C@H](NC(=O)c2ccncc2)[C@@H](CO)O1)NCC1CCCCC1
    -1	7[16.7 µM]
- COc1cccc(NC(=O)Nc2ccc3c(c2)C(=O)N(C)C[C@H](OC)[C@@H](C)CN[C@H](C)CO3)c1
    -12	8[16.7 µM]
- CNC[C@H]1Oc2ccc(NS(C)(=O)=O)cc2CC(=O)N([C@@H](C)CO)C[C@H]1C
    -4	1[16.7 µM]
- C[C@@H]1CN([C@H](C)CO)C(=O)Cc2cc(NC(=O)Nc3ccc4c(c3)OCO4)ccc2O[C@@H]1CN(C)CC1CC1
    -13	-8[16.7 µM]
- CCCC#Cc1cnc2c(c1)C(=O)N([C@@H](C)CO)C[C@@H](C)[C@@H](CN(C)C(=O)NCCC)O2
    -1	18[16.7 µM]
- Cc1noc(C)c1S(=O)(=O)Nc1ccc2c(c1)C(=O)N([C@H](C)CO)C[C@@H](C)[C@@H](CN(C)C(=O)c1ccccc1)OCCCC[C@@H](C)O2
    15	-34[16.7 µM]
- O=C(C[C@H]1CC[C@H]2[C@@H](COC[C@H](O)CN2Cc2ccc(Cl)cc2)O1)NCCc1ccccc1
    -20	8[16.7 µM]

Screens deposited in PubChem by Broad Institute.

Not all compounds are listed. The share of hits here may be higher or lower than overall.
